Source: PubChem BioAssay (National Center for Advancing Translational Sciences (NCATS))
Vaccinia Venus: vaccinia inhibition (Venus reporter). Vaccinia virus Venus reporter expression, fluorescence. Potency, µM (top dose mostly 36.5 µM), for the others: top-dose activity change, negative = inhibition, usual class: inhibitors. actives 0.46% (n = 330,000). AID 720580; active means well fitted inhibition curve with a large enough effect; inconclusive means small, poorly fitted or top-dose-only effect; inactive means no such curve, though single readings can be large or run the other way; tested in A549 cells; also: nearly all actives have a fitted effect of over 30% in size; inactives centre near -10
VACV mCherry inh: vaccinia inhibition (mCherry reporter); Vaccinia virus mCherry reporter infection, fluorescence; about a quarter of the inactives have no number; Potency, µM (highest dose often 36.5 µM), for inactives: at the highest dose activity change, negative = inhibition, usual class: inhibitors; actives 0.63% (n = 310,000); AID 720579; active = well fitted inhibition curve with a large enough effect; inconclusive = small, poorly fitted or top-dose-only effect; inactive = no such curve, though single readings can be large or run the other way; tested in A549 cells; also: nearly all actives have a fitted effect of over 35% in size; inactives centre near -10
Starred values were filed as active, the others as inactive; & = joins results of further samples. % is scaled to controls: 0 for no effect and ±100 for the full control effect; potency is read from the fitted curve at half-maximal effect. Compounds as they come; overall some 0.82% were active at least once.

CCn1cc(CN2CCC(C(=O)Nc3cccc(-c4cscn4)c3)CC2)cn1 was read as Vaccinia Venus -4% and VACV mCherry inh -1%.
`COC(=O)[C@H](Cc1ccccc1)NC(=O)Cn1ccc(NC(=O)OCc2ccccc2)nc1=O` gave Vaccinia Venus -12% and VACV mCherry inh inactive.
O=C(CCc1ccccc1)NNC(=O)Nc1ccc(F)c(Cl)c1 was read as Vaccinia Venus -6% and VACV mCherry inh inactive.
`CCc1nc2sc3c(O)cc(=O)[nH]c3c2cc1C` gave Vaccinia Venus -12% and VACV mCherry inh inactive.
For O=C(O)CCN1C(=O)C2CCCCC2C1=O (stereo unspecified) the results were Vaccinia Venus 4% and VACV mCherry inh -6%.
For COc1cccc(-c2nn(Cc3ccccc3)cc2CO)c1 the results were Vaccinia Venus -12% and VACV mCherry inh inactive.
CCOc1ccc(S(=O)(=O)NC2CC2)cc1C(N)=O was read as Vaccinia Venus -9% and VACV mCherry inh -6%.
C[C@H](CO)N1C[C@H](C)[C@@H](CN(C)C(=O)Nc2ccccc2)Oc2ncc(C#CC3CCCCC3)cc2C1=O was read as Vaccinia Venus -22% and VACV mCherry inh -12%.
`CCOC(=O)c1nnc2c(-c3ccc(F)cc3)c(C)nn2c1N` gave Vaccinia Venus -10% and VACV mCherry inh -14%.
Screening COc1ccc(-c2[nH]c(-c3ccc(C)cc3)nc2SCC(=O)NCC2CCCO2)cc1 (stereo unspecified) returned Vaccinia Venus -15% and VACV mCherry inh -13%.
For COc1cc(C2CC(=O)c3c(O)cc(O)cc3O2)ccc1O (stereo unspecified) the results were Vaccinia Venus -2% and VACV mCherry inh -1%.
For CCOc1ccc(C(=O)Nc2cc(NC(=O)c3ccc(OCC)c(Cl)c3)cc(C(=O)O)c2)cc1Cl the results were Vaccinia Venus -2% and VACV mCherry inh -11%.
Screening CCN1/C(=C\C=C2\C(=O)N(C)C(=S)N2C)Sc2ccccc21 returned Vaccinia Venus -2% and VACV mCherry inh 11%.
`CCN1C(=O)/C(=C\N(C)C)S/C1=N\S(=O)(=O)c1ccccc1` gave Vaccinia Venus -9% and VACV mCherry inh -8%.
For Cc1nnc(N2CCC(C(=O)Nc3ccc(F)cc3)CC2)c2nn(-c3ccc(Cl)cc3)c(C)c12 the results were Vaccinia Venus -25% and VACV mCherry inh -29%.
CCc1cc(=S)n2c([nH]c3ccccc32)c1C#N was read as Vaccinia Venus -25% and VACV mCherry inh -24%.
`C=CCn1c(Cc2ccc(OC(C)C)c(Cl)c2)nnc1SCC(N)=O` gave Vaccinia Venus -23%.
For Cc1cc2c(C)nc(N/N=C/c3ccc([N+](=O)[O-])cc3)nc2o1 the results were Vaccinia Venus 1% and VACV mCherry inh -10%.
CCc1ccc(CNC(=O)CSc2c3c(nc4ccc(Cl)cc24)CCCC3)cc1 was read as Vaccinia Venus -10% and VACV mCherry inh -4%.
`CCOC(=O)[C@]12CCC=C1N(Cc1ccccc1)C(=O)[C@H](CC(=O)NCC13CC4CC(CC(C4)C1)C3)C2` gave Vaccinia Venus -11% and VACV mCherry inh -21%.
O=C(CN1CCCCC1)Nc1ccc(N2CCCCCC2)cc1 was read as Vaccinia Venus -13% and VACV mCherry inh -20%.
`C=C(C(=O)Nc1ccccc1)c1ccc(C)cc1` gave Vaccinia Venus -24% and VACV mCherry inh -4%.
Screening C[C@@H]1CN([C@H](C)CO)C(=O)c2cc(Br)cnc2O[C@H]1CN(C)C returned Vaccinia Venus -5% and VACV mCherry inh -5%.
For O=S(=O)(c1ccccc1)N1CCC(Oc2ccc(-n3cnnn3)cc2)CC1 the results were Vaccinia Venus -19% and VACV mCherry inh inactive.
Screening Cc1ccccc1OCCCC(=O)NCc1ccco1 returned Vaccinia Venus -20% and VACV mCherry inh -1%.
`O=C(CCN1C(=O)C2C3C=CC(C3)C2C1=O)NCCc1ccccc1Cl` (stereo unspecified) gave Vaccinia Venus -4% and VACV mCherry inh -12%.
For CCC(C)N(C(=O)CSc1nnc(-c2ccco2)n1C)C1CCS(=O)(=O)C1 (stereo unspecified) the results were Vaccinia Venus -6% and VACV mCherry inh -18%.
Cc1ccc(-n2c3nc(=O)[nH]c(=O)c-3cc3c(C)nn(-c4ccccc4)c32)cc1C was read as Vaccinia Venus -2% and VACV mCherry inh -2%.
Screening Cn1c(=O)c2c(nc(Cl)n2CC(=O)N2CCCCC2)n(C)c1=O returned Vaccinia Venus -1% and VACV mCherry inh inactive.
Screening O=C(CCCN1C(=O)/C(=C\c2cccs2)SC1=S)NNC(=O)c1ccncc1 returned Vaccinia Venus 2% and VACV mCherry inh -1%.
COc1cc2nc(N3CCOCC3)nc(NC3CC3)c2cc1OC was read as Vaccinia Venus -7% and VACV mCherry inh -18%.
Screening Cc1[nH]c(C(=O)O)c(C)c1C(=O)OC(C)C returned Vaccinia Venus -3% and VACV mCherry inh -7%.
For CCOc1ccc(N(CC(=O)O)S(=O)(=O)c2ccc(OC)c(OC)c2)cc1 the results were Vaccinia Venus -17% and VACV mCherry inh -1%.
`O=c1n(Cc2ccccc2Cl)c2sc3c(c2c2ncnn12)CCCC3` gave Vaccinia Venus -17%.
For CCc1nc2ccc(C(=O)Nc3cccc(OCC(=O)N(C)C)c3)cn2c1N(CCN(C)C)CC1CC1 the results were Vaccinia Venus 1% and VACV mCherry inh 24%.
Screening CCN(CC)S(=O)(=O)c1ccc(N=Cc2c(C)c(C#N)c(=O)n(C)c2O)cc1 returned Vaccinia Venus -4% and VACV mCherry inh -12%.
COc1ccc(C(=O)n2nnc3ccccc32)cc1Br was read as Vaccinia Venus -11% and VACV mCherry inh inactive.
Screening COc1cc(OC)cc(-n2c(=O)c3sccc3n(Cc3c(C)cc(C)cc3C)c2=O)c1 returned Vaccinia Venus -17% and VACV mCherry inh -15%.
`COc1cccc(C(=O)CN2C(=O)C(C)(C)Oc3ccc(C(=O)N4CCOCC4)cc32)c1` gave Vaccinia Venus -1% and VACV mCherry inh inactive.
`Cn1nc(CSc2ccccc2)c(C=O)c1Cl` gave Vaccinia Venus 5% and VACV mCherry inh 7%.
Screening O=S(=O)(c1ccc(Cl)cc1)N1CCCN(c2nc3ccc(Cl)cc3s2)CC1 returned Vaccinia Venus 2% and VACV mCherry inh -7%.
CCCCCCCCC(=O)N/N=C(\C)c1ccc(O)cc1O was read as Vaccinia Venus -19% and VACV mCherry inh -23%.
For O=C(Nc1ccc2oc(-c3cccnc3)nc2c1)c1ccc(-c2ccccc2)o1 the results were Vaccinia Venus -20% and VACV mCherry inh -16%.
`Cc1c(Cl)cccc1NC(=S)N1CC2CC(C1)c1cccc(=O)n1C2` (stereo unspecified) gave Vaccinia Venus -8% and VACV mCherry inh -13%.
For COc1ccc(N2CCN(C(=O)[C@H](C)NC(=O)c3ccccc3Cl)CC2)cc1 the results were Vaccinia Venus -10% and VACV mCherry inh -28%.

Structural class, the entries above with bromine (2)
Screening C[C@@H]1CN([C@H](C)CO)C(=O)c2cc(Br)cnc2O[C@H]1CN(C)C returned Vaccinia Venus -5% and VACV mCherry inh -5%.
COc1ccc(C(=O)n2nnc3ccccc32)cc1Br was read as Vaccinia Venus -11% and VACV mCherry inh inactive.

Remaining list, next part
For Brc1cccc(CSc2nnc(-c3ccncc3)o2)c1 the results were Vaccinia Venus -16% and VACV mCherry inh -22%.
`CCN(CC)CC(=O)Nc1sc(C)cc1C(=O)c1ccc(C)cc1` gave Vaccinia Venus -2% and VACV mCherry inh inactive.
For COc1ccc(NC(=O)CSc2nc(-c3cccs3)cc(C(F)(F)F)c2C#N)cc1 the results were Vaccinia Venus -7% and VACV mCherry inh -14%.
`CCC1CSC(Nc2ccc(C(=O)/C=C/c3ccc(OC)c(OC)c3)cc2)=N1` (stereo unspecified) gave Vaccinia Venus inconclusive and VACV mCherry inh 11µM*.
CNC(=O)c1ccc(CNC(=O)OCC(F)(F)F)cc1 was read as Vaccinia Venus -9% and VACV mCherry inh -21%.
`COc1ccc(OC)c(CCNc2nccn(-c3ccc(C)c(C)c3)c2=O)c1` gave Vaccinia Venus -8% and VACV mCherry inh -17%.
`COc1ccc(C(=O)NCCn2cc(SCC(=O)Nc3ccc4c(c3)OCCO4)c3ccccc32)cc1` gave Vaccinia Venus -11% and VACV mCherry inh -16%.
For COc1ccc(N2CCN(CCC(N)=O)CC2)cc1 the results were Vaccinia Venus 1%.
Screening COCC(=O)OCC(=O)Nc1cc(C(C)(C)C)nn1-c1ccccc1 returned Vaccinia Venus -1% and VACV mCherry inh -6%.
For O=C1C2C3C=CC(C4CC34)C2C(=O)N1CCc1ccccc1 (stereo unspecified) the results were Vaccinia Venus -13% and VACV mCherry inh inactive.
S=c1[nH]nc(CCc2ccccc2)n1-c1ccccc1 was read as Vaccinia Venus -17% and VACV mCherry inh -21%.
O=[N+]([O-])c1c(NCc2ccco2)ncnc1NCc1ccco1 was read as Vaccinia Venus -7% and VACV mCherry inh -10%.
COc1ccc(/C=C(\NC(=O)c2ccc(OC)cc2)C(=O)Nc2cccc(C(=O)O)c2)cc1 was read as Vaccinia Venus -11% and VACV mCherry inh -23%.
For CCCCOc1ccc([N+](=O)[O-])cc1C(=O)O the results were Vaccinia Venus -20% and VACV mCherry inh -7%.
For COC(=O)c1ccc(NC(=O)c2ccccc2)o1 the results were Vaccinia Venus -18%.

Random excerpt: two entries already listed, in no set order.
Screening COc1cc(OC)cc(-n2c(=O)c3sccc3n(Cc3c(C)cc(C)cc3C)c2=O)c1 returned Vaccinia Venus -17% and VACV mCherry inh -15%.
`O=C(CCN1C(=O)C2C3C=CC(C3)C2C1=O)NCCc1ccccc1Cl` (stereo unspecified) gave Vaccinia Venus -4% and VACV mCherry inh -12%.

The listing picks up; the 6 compounds before the break are reprinted first.
For O=C1C2C3C=CC(C4CC34)C2C(=O)N1CCc1ccccc1 (stereo unspecified) the results were Vaccinia Venus -13% and VACV mCherry inh inactive.
S=c1[nH]nc(CCc2ccccc2)n1-c1ccccc1 was read as Vaccinia Venus -17% and VACV mCherry inh -21%.
O=[N+]([O-])c1c(NCc2ccco2)ncnc1NCc1ccco1 was read as Vaccinia Venus -7% and VACV mCherry inh -10%.
COc1ccc(/C=C(\NC(=O)c2ccc(OC)cc2)C(=O)Nc2cccc(C(=O)O)c2)cc1 was read as Vaccinia Venus -11% and VACV mCherry inh -23%.
For CCCCOc1ccc([N+](=O)[O-])cc1C(=O)O the results were Vaccinia Venus -20% and VACV mCherry inh -7%.
For COC(=O)c1ccc(NC(=O)c2ccccc2)o1 the results were Vaccinia Venus -18%.
Screening CC1(C)Cc2c(c(-c3ccccc3)nc3[nH][nH]c(=O)c23)CO1 returned Vaccinia Venus -14%.
Screening COc1ccc(CC(=O)NNc2ncnc3c2cnn3C)cc1 returned Vaccinia Venus 0% and VACV mCherry inh -13%.
O=C(COc1nsnc1N1CCOCC1)Nc1cccc(Cl)c1 was read as Vaccinia Venus -9% and VACV mCherry inh -12%.
For CCOC(=O)c1c(NC(C)=O)c2c3c(sc2n1Cc1nc(-c2cccc(Cl)c2)oc1C)CCCC3 the results were Vaccinia Venus -10% and VACV mCherry inh 1%.
For O=C(/C=C/c1c(F)cccc1Cl)N1CCc2ccccc2C1 the results were Vaccinia Venus -3% and VACV mCherry inh -12%.
Cc1cc(N)n(-c2ncnc3scc(-c4ccccc4)c23)n1 was read as Vaccinia Venus -7% and VACV mCherry inh -9%.
CCN(Cc1ccccc1)C(=O)c1c[nH]c2ccc(S(=O)(=O)N(C)CCC#N)cc2c1=O was read as Vaccinia Venus -8% and VACV mCherry inh -13%.
For CCC1OC(C(C)C)Cc2[nH][nH]c(=O)c21 (stereo unspecified) the results were Vaccinia Venus 1% and VACV mCherry inh -6%.
Screening O=S(=O)(c1ccccc1)c1cnc2ccccc2c1 returned Vaccinia Venus -1% and VACV mCherry inh -22%.
Screening COc1ccc(N2CCN(C(=O)c3ccc4c(c3)CC(c3ccccc3)OC4=O)CC2)cc1 (stereo unspecified) returned Vaccinia Venus -16% and VACV mCherry inh inconclusive.
Cc1ccc(Nc2c(-c3ccc(N4CCOCC4)cc3)nc3ncccn23)cc1C was read as Vaccinia Venus -15%&-14% and VACV mCherry inh -10%&2%.
Screening CCCCN(CCCC)CCC(O)c1cc2c(Cl)cc(Cl)cc2c2cc(C(F)(F)F)ccc12 (stereo unspecified) returned Vaccinia Venus -22% and VACV mCherry inh -15%.
CC1CCc2sc(C(=O)N(C)CC(=O)Nc3cccc(F)c3)cc2C1 (stereo unspecified) was read as Vaccinia Venus -9% and VACV mCherry inh -6%.
Screening CC(=O)N/C(=N\OCc1ccccc1Cl)c1nonc1NC(C)=O returned Vaccinia Venus -1% and VACV mCherry inh -7%.
For COc1ccccc1-c1ccnc(-n2ncc(C(=O)N3CCCCC3c3cccnc3)c2C)n1 (stereo unspecified) the results were Vaccinia Venus -8% and VACV mCherry inh inactive.
`O=C(CN(Cc1ccccc1)C(=O)CCC(=O)Nc1nccs1)NCc1ccccc1` gave Vaccinia Venus -4% and VACV mCherry inh 7%.
`COc1ccc(Nc2nc(C)cc(C)c2C#N)c(OC)c1` gave Vaccinia Venus -8% and VACV mCherry inh inactive.
Screening C[C@@H]1CN([C@H](C)CO)C(=O)c2cc(C#C[C@@H](C)O)cnc2O[C@H]1CN(C)C(=O)c1ccc(F)cc1 returned Vaccinia Venus -10% and VACV mCherry inh 0%.
For CC(C)(C)c1ccc(-n2nc(C(N)=O)c(O)cc2=O)cc1 the results were Vaccinia Venus -23% and VACV mCherry inh -6%.
